Assay outcomes: PubChem, National Center for Advancing Translational Sciences (NCATS)
Vaccinia mCherry: vaccinia inhibition (mCherry reporter); Potency, µM (series often up to 36.5 µM), inactives show at the top dose activity change, negative = inhibition, usual class: inhibitors; actives 0.63% (n = 310,000); Vaccinia virus mCherry reporter infection, fluorescence; about a quarter of the inactives have no number; active = well fitted inhibition curve with a large enough effect; inconclusive = small, poorly fitted or top-dose-only effect; inactive = no such curve, though single readings can be large or run the other way; tested in A549 cells; note: nearly all actives have a fitted effect of over 35% in size; inactives centre near -10
Vaccinia Venus: vaccinia inhibition (Venus reporter); Vaccinia virus Venus reporter expression, fluorescence; Potency, µM (doses to about 36.5 µM), for the others: at the top dose activity change, negative = inhibition, usual class: inhibitors; actives 0.46% (n = 330,000); AID 720580; active means well fitted inhibition curve with a large enough effect; inconclusive means small, poorly fitted or top-dose-only effect; inactive means no such curve, though single readings can be large or run the other way; tested in A549 cells; note: nearly all actives have a fitted effect of over 30% in size; inactives centre near -10
The depositor's hits bear a star; & = joins results of further samples; [ ] = another dose, or the depositor's remark. % is set by controls: 0 for no effect and ±100 for the full control effect; potency is the fitted concentration of half-maximal effect. Rows were taken by chance. About 0.82% of those tested had a hit in this group.

What do the screens show for `O=C(CCCOc1ccccc1)N1CCN(S(=O)(=O)c2cccc(F)c2)CC1`?
Vaccinia mCherry: -14%; Vaccinia Venus: -2%

Results for CCOC(=O)N1CCN(C(=O)CCN2C(=O)c3ccccc3S2(=O)=O)CC1 ?
Vaccinia mCherry: -4%; Vaccinia Venus: -4%

What do the screens show for `COc1ccccc1Nc1ccc(Nc2ccccc2OC)nn1`?
Vaccinia mCherry: -29%; Vaccinia Venus: -18%

What do the screens show for `O=C(Cc1ccccc1)NCCn1ccc2ccccc21`?
Vaccinia mCherry: -16%; Vaccinia Venus: 12%

What do the screens show for `CC(C)C1=NOC(C(=O)N2CCC(N3CCC(C(=O)N4CCOCC4)CC3)CC2)C1` (stereo unspecified)?
Vaccinia mCherry: -1%; Vaccinia Venus: -8%

What do the screens show for `CC(=O)Nc1cncc(-c2ccc(CN(C)C)cc2)n1`?
Vaccinia mCherry: 13%; Vaccinia Venus: -6%

Results for CC(Nc1ccc(Cl)cc1)C(=O)NN (stereo unspecified) ?
Vaccinia mCherry: -7%; Vaccinia Venus: -9%

How did CCn1c(COc2cccc(C)c2)nc2ccccc21 do in these assays?
Vaccinia mCherry: 0%; Vaccinia Venus: -12%&-21%

How did COc1ccc2nc(-c3ccccc3)nc(SCC(=O)NCC3CCCO3)c2c1 (stereo unspecified) do in these assays?
Vaccinia mCherry: -16%; Vaccinia Venus: -11%

Results for O=c1cc(O)c2sc(Nc3ccc(F)cc3)nc2[nH]1 ?
Vaccinia mCherry: -14%; Vaccinia Venus: -3%

Results for CCCC(C)c1nc(C(N)=O)c2[nH]c(=O)n(-c3ccc(OC)c(OC)c3)c2n1 (stereo unspecified) ?
Vaccinia mCherry: inactive[7.34 µM]; Vaccinia Venus: 0%[7.34 µM]

Results for O=C(NCCNC(=O)Oc1cccc2ccccc12)Oc1cccc2ccccc12 ?
Vaccinia mCherry: -13%; Vaccinia Venus: 5%

Results for C=CCCCCCCCCC(=O)Nc1c[nH]c(=O)[nH]c1=O ?
Vaccinia mCherry: inconclusive; Vaccinia Venus: -12%

Results for CCOC(=O)c1ccc(S(=O)(=O)NCCNCc2ccccc2)cc1 ?
Vaccinia mCherry: inconclusive; Vaccinia Venus: -14%

What do the screens show for `CCN(CC)CC(=O)Nc1ccc([N+](=O)[O-])cc1`?
Vaccinia mCherry: inactive; Vaccinia Venus: 8%

What do the screens show for `CNC(=O)Nc1nnc(C(C)(C)C)s1`?
Vaccinia mCherry: -13%; Vaccinia Venus: 1%

What do the screens show for `CC(=O)Nc1ccc(NC(=O)CSc2nnnn2-c2ccc(F)cc2)cc1`?
Vaccinia mCherry: -28%; Vaccinia Venus: -29%

What do the screens show for `CC(C)C(=O)Nc1ccc(-c2csc(-c3ccccc3)n2)cc1`?
Vaccinia mCherry: -4%; Vaccinia Venus: -14%

Results for CC(C)C(NC(=O)c1ccc(C(C)(C)C)cc1)C(=O)NCCc1ccccn1 (stereo unspecified) ?
Vaccinia mCherry: -12%; Vaccinia Venus: -16%

How did Cc1nn(-c2ccccc2)c2c1C(=O)N(c1ccccc1)C(=O)C(C)(C)C2 do in these assays?
Vaccinia Venus: -7%

What do the screens show for `O=C(O)c1cccc(S(=O)(=O)Nc2ccc(N3CCCCC3)cc2)c1`?
Vaccinia mCherry: -14%; Vaccinia Venus: 8%

What do the screens show for `COc1ccc(CN2C(=O)c3cccc4cccc2c34)cc1F`?
Vaccinia mCherry: -28%; Vaccinia Venus: -7%

What do the screens show for `CC(=O)c1cccc(CN2CCN(Cc3ccccc3)C(CCO)C2)c1` (stereo unspecified)?
Vaccinia mCherry: inconclusive; Vaccinia Venus: 2%

How did S=C(NNC(=S)Nc1ccc(Cl)cc1)NNc1ccccc1 do in these assays?
Vaccinia mCherry: -8%; Vaccinia Venus: -13%

How did O=C(O)CC/C(=N\NC(=O)c1ccncc1)c1ccccc1 do in these assays?
Vaccinia mCherry: -12%; Vaccinia Venus: -20%

How did COc1cccc(NC(=O)N2CCCC2C(=O)NC2CC2)c1 (stereo unspecified) do in these assays?
Vaccinia mCherry: -11%; Vaccinia Venus: -7%

What do the screens show for `Cc1ccccc1C(=O)NCc1ccc2c(c1)CCN2C(=O)c1ccc(F)cc1`?
Vaccinia mCherry: -11%; Vaccinia Venus: -10%

What do the screens show for `CCS(=O)(=O)c1nc(S(=O)(=O)c2ccc(Cl)cc2)c(NCc2ccccn2)s1`?
Vaccinia mCherry: -3%; Vaccinia Venus: 0%

What do the screens show for `COCCNC(=O)C1(C)CCCN(C(=O)c2ccccc2)C1` (stereo unspecified)?
Vaccinia mCherry: -7%; Vaccinia Venus: -4%

How did O=C(Cn1nc(Cc2cccnc2)c2ccccc2c1=O)Nc1cccnc1Cl do in these assays?
Vaccinia mCherry: -6%; Vaccinia Venus: -2%

Results for CCC1CN(Cc2cccn2-c2ccccn2)Cc2cc(OC)ccc2O1 (stereo unspecified) ?
Vaccinia mCherry: -9%; Vaccinia Venus: 5%

Results for Cc1c(C(=O)N2CCCCCC2)c(S(=O)(=O)NCc2ccc(Br)cc2)c(C)n1C ?
Vaccinia mCherry: -5%; Vaccinia Venus: -5%

Results for CCOc1ccc(CC(=O)Nc2nccs2)cc1 ?
Vaccinia mCherry: 0%; Vaccinia Venus: 3%

Results for O=C(N/N=C/c1cccs1)c1n[nH]c2c1CCC2 ?
Vaccinia mCherry: -19%; Vaccinia Venus: inconclusive

Results for O=C(COC(=O)c1cc(S(=O)(=O)Nc2ccccc2Cl)ccc1O)Nc1nc2ccccc2s1 ?
Vaccinia mCherry: -5%; Vaccinia Venus: 13%

Results for CCc1ccccc1NC(=O)CSc1ncn[nH]1 ?
Vaccinia mCherry: inactive; Vaccinia Venus: -6%

How did Cc1ccc2nc(SCC(=O)NCc3ccc4c(c3)OCO4)nc(=O)n2c1 do in these assays?
Vaccinia mCherry: inactive; Vaccinia Venus: -20%

Results for COc1ccc(C(C(N)=O)c2ncc(C(F)(F)F)cc2Cl)cc1 (stereo unspecified) ?
Vaccinia mCherry: -25%; Vaccinia Venus: -9%

How did Oc1[nH]c2ccccc2c1N=Nc1ccccc1 do in these assays?
Vaccinia mCherry: -17%; Vaccinia Venus: -5%

How did CCNC(=O)CC1C(=O)N(c2ccc(C)cc2)C(=O)N1CCOC (stereo unspecified) do in these assays?
Vaccinia mCherry: -5%&3%; Vaccinia Venus: -6%&-3%

How did Cc1nn(C(C)(C)C)c(OC(=O)C(C)(C)C)c1Sc1ccccc1 do in these assays?
Vaccinia mCherry: -2%; Vaccinia Venus: -5%

How did COc1cc(C(=S)N2CCCCC2)ccc1O do in these assays?
Vaccinia mCherry: -3%; Vaccinia Venus: -10%

How did O=C(NC(c1ccc(-c2ccccc2)cc1)c1cnccn1)C1CCN(Cc2cccc(C(F)(F)F)c2)CC1 (stereo unspecified) do in these assays?
Vaccinia mCherry: -11%; Vaccinia Venus: -13%

What do the screens show for `O=C(c1cccc2cccc(O)c12)N1CCCCC1`?
Vaccinia mCherry: -4%; Vaccinia Venus: -10%

How did O=C(CS(=O)(=O)Cc1ccccc1)NCCc1ccc(F)cc1 do in these assays?
Vaccinia mCherry: inactive; Vaccinia Venus: -26%

What do the screens show for `COC(=O)C1=C(C(=O)OC)[C@@H]2N(Cc3ccccc3)c3ccccc3[C@@]23C[C@@H](C(=O)OC)N(C(=O)NC(C)(C)C)C3=N1`?
Vaccinia mCherry: -4%; Vaccinia Venus: -11%

Results for Cc1cnn(-c2nc(-c3ccccc3)cc(-c3ccccc3)n2)c1 ?
Vaccinia mCherry: -12%; Vaccinia Venus: -19%

What do the screens show for `COCCN(C(=O)COC(=O)Cc1c[nH]c2ccccc12)c1c(N)n(Cc2ccccc2)c(=O)[nH]c1=O`?
Vaccinia mCherry: -14%; Vaccinia Venus: -8%

What do the screens show for `Cc1csc2ncc(C(=O)Nc3ccon3)c(=O)n12`?
Vaccinia mCherry: inactive; Vaccinia Venus: 3%

Results for CC(C)c1cnc2c(c1SCC(=O)Nc1ccccc1C(F)(F)F)c(=O)n(C)c(=O)n2C ?
Vaccinia mCherry: -6%; Vaccinia Venus: -6%

Results for COc1ccccc1Nc1nc(N2CCOCC2)nc(N2CCOCC2)n1 ?
Vaccinia mCherry: -24%; Vaccinia Venus: -15%

Results for CCOC(=O)Nc1ccc2c(CN3C(=O)NC4(CCCC4)C3=O)cc(=O)oc2c1 ?
Vaccinia Venus: inconclusive

How did Cc1nc(Cl)sc1C(=O)Nc1ccc(C(C)(C)C)cc1 do in these assays?
Vaccinia mCherry: inactive; Vaccinia Venus: -16%

Results for CCN(CC)C(=O)Cn1c(=O)n(Cc2ccc(C(=O)NCc3ccccc3Cl)cc2)c(=O)c2ccccc21 ?
Vaccinia mCherry: -20%; Vaccinia Venus: -17%

Results for COc1ccc(NC(=O)CSc2nnc(-c3cccnc3)n2Cc2ccco2)c(OC)c1 ?
Vaccinia Venus: -11%

How did Cc1ccc(SCC(=O)OCC(=O)NCCCc2ccccc2)cc1 do in these assays?
Vaccinia mCherry: inactive; Vaccinia Venus: -2%

Results for CN(Cc1ccccc1F)c1ccc(S(=O)(=O)N2CCCC2)cn1 ?
Vaccinia mCherry: 2%; Vaccinia Venus: -7%

What do the screens show for `O=C(/C=C/c1cc2c(cc1Br)OCO2)NCc1ccc(Cl)cc1`?
Vaccinia mCherry: inactive; Vaccinia Venus: -13%

How did COc1ccc(C(C(=O)NC2CCCC2)N(C(=O)c2ccco2)c2ccc3c(c2)OCO3)cc1OC (stereo unspecified) do in these assays?
Vaccinia Venus: -18%

What do the screens show for `O=C(CSc1nnc(-c2ccco2)n1CC1CCCO1)c1ccc(F)cc1` (stereo unspecified)?
Vaccinia mCherry: -13%; Vaccinia Venus: -10%

How did Cc1cc(C)cc(NC(=O)CS(=O)(=O)c2cccc3nsnc23)c1 do in these assays?
Vaccinia mCherry: -12%; Vaccinia Venus: -9%

How did C=C(C)CN1C(=O)c2ccccc2C1=O do in these assays?
Vaccinia mCherry: inactive; Vaccinia Venus: -13%

How did COc1cc(C#Cc2c(-c3cncn3C)n(C)c3ccc(-c4cnc(N5CCOCC5)nc4)cc23)cc(OC)c1 do in these assays?
Vaccinia mCherry: inconclusive; Vaccinia Venus: inconclusive

Results for Cc1cccc(NC(=O)CNC(=O)CN2C(=O)NC(C)(CCC(C)C)C2=O)c1C (stereo unspecified) ?
Vaccinia mCherry: -11%; Vaccinia Venus: 0%

How did COC(=O)C1=C(c2ccc3ccccc3c2)C[C@@H]2CC[C@H]1N2C(=O)NCc1ccc(C(F)(F)F)cc1 do in these assays?
Vaccinia mCherry: -22%; Vaccinia Venus: inconclusive

Results for COc1ccc(NC(=O)CCn2nc(-c3ccc(Cl)cc3)c3ccccc3c2=O)cc1 ?
Vaccinia mCherry: -19%; Vaccinia Venus: -23%

What do the screens show for `CN1CCN(c2ccc([N+](=O)[O-])c(SCCO)c2)CC1`?
Vaccinia mCherry: -1%; Vaccinia Venus: -4%

What do the screens show for `COc1ccc(-c2cc(NCc3ccc(F)cc3)n3cnnc3n2)cc1`?
Vaccinia mCherry: -10%; Vaccinia Venus: -10%

How did Cc1ccc(Cl)cc1NC(=O)COC(=O)C1CCCC1 do in these assays?
Vaccinia Venus: -18%

How did CSCC[C@H](N)C(=O)N1CCC(C(=O)N[C@H](C)C(=O)NC(C)c2ccccc2)CC1 (stereo partly specified) do in these assays?
Vaccinia mCherry: -5%; Vaccinia Venus: 4%

What do the screens show for `CCn1c(SCC(=O)Nc2nc(C)c(C)s2)nnc1-c1cccs1`?
Vaccinia mCherry: -11%; Vaccinia Venus: -13%

Results for Oc1c(C(c2ccc(Cl)cc2Cl)N2CCN(c3ccccc3)CC2)sc2nc(-c3ccco3)nn12 (stereo unspecified) ?
Vaccinia mCherry: -3%; Vaccinia Venus: -15%

Results for O=C(Cn1cccc1C(=O)c1ccccc1)NCCCN1CCOCC1 ?
Vaccinia mCherry: -6%; Vaccinia Venus: 3%

How did COc1ccc(C(=O)NCc2nnc(SCC(=O)c3ccc(F)cc3)n2C)cc1OC do in these assays?
Vaccinia mCherry: -8%; Vaccinia Venus: -4%

How did COc1ccc(CN2C(=O)CN(S(C)(=O)=O)CC2(C)C(=O)Nc2c(C)cccc2C)cc1 (stereo unspecified) do in these assays?
Vaccinia mCherry: -13%; Vaccinia Venus: -6%

What do the screens show for `Cc1c(NC(=O)C(C)OC(=O)c2ccc(NC(=O)CC#N)cc2)c(=O)n(-c2ccccc2)n1C` (stereo unspecified)?
Vaccinia mCherry: -15%; Vaccinia Venus: -1%

Fetched one by one from the list above (7):
Results for Oc1c(C(c2ccc(Cl)cc2Cl)N2CCN(c3ccccc3)CC2)sc2nc(-c3ccco3)nn12 (stereo unspecified) ?
Vaccinia mCherry: -3%; Vaccinia Venus: -15%

How did C=C(C)CN1C(=O)c2ccccc2C1=O do in these assays?
Vaccinia mCherry: inactive; Vaccinia Venus: -13%

How did COc1cc(C#Cc2c(-c3cncn3C)n(C)c3ccc(-c4cnc(N5CCOCC5)nc4)cc23)cc(OC)c1 do in these assays?
Vaccinia mCherry: inconclusive; Vaccinia Venus: inconclusive

What do the screens show for `Cc1c(NC(=O)C(C)OC(=O)c2ccc(NC(=O)CC#N)cc2)c(=O)n(-c2ccccc2)n1C` (stereo unspecified)?
Vaccinia mCherry: -15%; Vaccinia Venus: -1%

How did COc1ccc(CN2C(=O)CN(S(C)(=O)=O)CC2(C)C(=O)Nc2c(C)cccc2C)cc1 (stereo unspecified) do in these assays?
Vaccinia mCherry: -13%; Vaccinia Venus: -6%

How did Cc1ccc(Cl)cc1NC(=O)COC(=O)C1CCCC1 do in these assays?
Vaccinia Venus: -18%

What do the screens show for `COc1ccc(-c2cc(NCc3ccc(F)cc3)n3cnnc3n2)cc1`?
Vaccinia mCherry: -10%; Vaccinia Venus: -10%
